VDR inh – vitamin D3 receptor (human) inhibition; hit rate 0.93% among 400,000; VDR-SRC2-3 peptide fluorescence polarization, 2 h; P11473; Potency, µM, for the others: max response, negative = inhibition, actives largely listed as inhibitors; active = well fitted inhibition curve with a large enough effect; note: series mostly up to about 120 µM
Target sequence (P11473 whole entry, looked up): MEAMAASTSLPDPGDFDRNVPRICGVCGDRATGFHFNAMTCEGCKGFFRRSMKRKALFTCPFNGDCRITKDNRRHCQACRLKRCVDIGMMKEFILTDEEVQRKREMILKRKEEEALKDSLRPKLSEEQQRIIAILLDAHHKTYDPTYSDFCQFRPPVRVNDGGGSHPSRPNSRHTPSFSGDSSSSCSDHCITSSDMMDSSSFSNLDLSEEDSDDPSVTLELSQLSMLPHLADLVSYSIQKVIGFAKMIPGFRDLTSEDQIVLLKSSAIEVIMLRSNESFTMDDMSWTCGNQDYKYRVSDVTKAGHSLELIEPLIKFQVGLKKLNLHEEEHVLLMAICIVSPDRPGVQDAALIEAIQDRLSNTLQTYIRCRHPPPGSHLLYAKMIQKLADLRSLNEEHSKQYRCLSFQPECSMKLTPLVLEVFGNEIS
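Measured by FP: displacement of SRC2-3 coactivator peptide from VDR by library compounds, following a two-hour ambient incubation.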
* marks the source's active call; other numbers are inactive results; & = joins results of further samples. % is set by controls: 0 for no effect and ±100 for the full control effect; potency is the fitted concentration of half-maximal effect. Some of the compounds tested (hit frequency here may not be typical).

VDR inh | canonical_smiles
5.4% | CN(C)c1ccc(C2(c3ccc(N(C)C)cc3)OC(=O)c3cc(N)ccc32)cc1
-16.0% | Cc1c(/C=N/Nc2ccc(C(=O)O)cc2)c2ccccc2n1C
19.6% | CSc1ncccc1C(=O)Nc1ccc(S(=O)(=O)N2CCCC2)cc1
3.3% | O=C1CC(SCCc2nc3ccccc3[nH]2)C(=O)N1c1ccc(Cl)cc1 (stereo not drawn)
-5.5% | CCN1C(=O)CS/C1=N\S(=O)(=O)c1ccc(Cl)cc1
-2.3% | CN(Cc1c(C(=O)N/N=C/c2cccc(O)c2)nnn1-c1nonc1N)c1ccccc1
10.1% | O=C(CCS(=O)(=O)c1cc(Br)cc2c1N(C(=O)C1CC1)CC2)NCc1ccco1
13.5% | O=C(O)c1ccc(CNC(=S)Nc2ccccc2)cc1
-6.9% | CCN(C[C@H]1N[C@@](Cc2ccccc2)(C(=O)OC)[C@H]2C(=O)N(C)C(=O)[C@@H]12)S(=O)(=O)c1ccc(OC)cc1
18.3% | CCOc1ccc(NC(=O)CN2CCN(c3ccc(Cl)cc3)CC2)cc1
-3.9% | CCCCN(C(=O)C1CCCC1)c1c(N)n(CC(C)C)c(=O)[nH]c1=O
-23.9% | O=C(CN(C(=O)c1csnn1)c1ccc2c(c1)OCCO2)NCc1ccc(F)cc1
-0.3% | O=C(COC(=O)CCC(NC(=O)OCc1ccccc1)C(=O)OCC(=O)Nc1ccccc1)Nc1ccccc1 (stereo not drawn)
1.3% | CCc1ccccc1NC1c2ccccc2C(=O)N1c1cccnc1 (stereo not drawn)
-17.7% | COc1ccc(C(=O)Nc2ccc([N+](=O)[O-])cn2)cc1OC
79.4µM* | C=C(CN(C)C)C(=O)c1ccc2c(c1)OCO2
-11.4% | CCN(CC)CCN(C(=O)CCS(=O)(=O)c1ccccc1)c1nc2cc(OC)c(OC)cc2s1
0.3% | O=C(Nc1cccc(N=Cc2cc(Cl)cc(Br)c2O)c1)c1ccco1
-2.0% | Cc1coc2cc3oc(=O)c(CC(=O)N[C@@H](CC(C)C)C(=O)O)c(C)c3cc12
-2.2% | COc1ccc(C2CC(=O)C3=C(C2)NC(C)=C(C#N)C3c2ccc(N(C)C)cc2)cc1 (stereo not drawn)
0.6% | O=C(O)c1nn(CCOc2ccc(Br)cc2)c(=O)c2ccccc12
-8.0% | O=C(COC(=O)c1ccccn1)Nc1cccc2ccccc12
3.1% | Cc1cc(=O)[nH]c(N/N=C/c2ccc3c(c2)OCCO3)n1
9.4% | O=c1cc(CN2CCN(c3ccccc3O)CC2)nc2sccn12
2.4%&3.2% | Cc1ccc(NC(=O)C2CCCN(S(=O)(=O)c3c(C)noc3C)C2)cc1 (stereo not drawn)
-8.8% | Cc1ccccc1Nc1c([N+](=O)[O-])cncc1[N+](=O)[O-]
10.1% | Cc1ccc(OC(=O)NC2CCS(=O)(=O)C2)cc1C (stereo not drawn)
10.7% | Cc1nnc(SCC(=O)NCc2cccs2)[nH]c1=O
-6.7% | CC(C)Oc1cccc(C(=O)Nc2ccc(Br)cc2F)c1
-7.4% | Clc1ccc(C#Cc2cccnc2)cc1
-5.2% | Cc1ccn2cc(CNC(=O)c3cccc(C(F)(F)F)c3)nc2c1
9.2% | CC(O)CC(C)O (stereo not drawn)
-16.7% | O=C(/C=C/c1ccc(S(=O)(=O)N2CCOCC2)cc1)N(CCO)Cc1ccccc1
4.6% | Cc1cc(C)nc(NC(=O)C(C)N2C(=O)c3ccccc3C2=O)n1 (stereo not drawn)
-11.9% | O=C(CN1C(=O)NC2(CCCC2)C1=O)NCCC1=CCCCC1
7.5% | O=S(=O)(Nc1ccc(Oc2ncccn2)c(Cl)c1)c1ccc(Cl)cc1
16.2% | COc1cc(NS(=O)(=O)c2ccc3c(c2)CCN3S(C)(=O)=O)cc(OC)c1
-18.4% | CCCCn1ccnc1C
-3.1% | Cn1cccc1C(=O)NCC1COc2ccccc2O1 (stereo not drawn)
2.4% | COc1ccc(CN2C(=O)c3oc4ccc(F)cc4c(=O)c3C2c2ccc(O)cc2)cc1 (stereo not drawn)
5.6% | CC(C)c1cc(C(=O)Nc2cc(Cl)ccc2O)no1
-50.0% | c1cncc(-c2nnc(-c3cccnc3)nn2)c1
9.1% | Clc1cccc(CSc2nnc(-c3c[nH]c4ccccc34)o2)c1
1.8% | OC(CNCC(c1ccc(Cl)cc1Cl)c1c[nH]c2ccccc12)c1ccccc1 (stereo not drawn)
4.8% | OC[C@@H](O)C(O)[C@@H](O)CO (stereo partly drawn)
10.3% | Cn1ncc2c(NCc3ccc(Cl)cc3)ncnc21
-4.5% | Cc1cccc(-n2ncc3c(N(CCO)CCO)ncnc32)c1
0.2% | Cc1ccc(S(=O)(=O)N/N=C/c2cc(Br)ccc2O)cc1
-3.6% | Cc1c(C(=O)C(=O)NCCC2=CCCCC2)c2ccccc2n1C
-11.4% | CCCCC1(CC(=O)OC)C(=O)N(c2ccccc2)N(c2ccccc2)C1=O
-20.2% | COc1ccc(C2Nc3ccccc3C(=O)N2c2ccc(Cl)cc2)cc1COc1ccc(NC(C)=O)cc1 (stereo not drawn)
-1.5% | CC1CCN(C(=O)COC(=O)c2n[nH]c3ccccc23)CC1
-5.5% | Cc1cc(Cl)ccc1NC(=O)Cn1nnc2sc(-c3ccccc3)cc2c1=O
11.9% | COc1ccccc1NC(=O)CSC1=Nc2ccccc2C2=NC(Cc3ccccc3)C(=O)N12 (stereo not drawn)
-9.5% | O=C1N[C@@H](c2ccccc2)COC(=O)[C@H](Cc2ccc(F)cc2)C/C=C\C[C@@H]1CC(=O)N(CCO)Cc1ccccc1
-12.6% | CC(C)Oc1ccc(CNC(=O)CCCn2c(=O)c3cccn3c3ccccc32)cc1

The list continues.
VDR inh | canonical_smiles
16.2% | COc1ccc(NS(=O)(=O)c2cccc(C(=O)N3CCN(C(=O)c4ccco4)CC3)c2)cc1
1.7% | O=C(COc1ccc2c3c(c(=O)oc2c1)CCC3)NCCCN1CCCC1=O
-9.6% | CCOC(=O)CCSc1nc(C(C)(C)C)cc(C(F)(F)F)c1C#N
12.9% | Cc1cn(-c2cc(NC(=O)c3ccc(C)c(NC(=O)c4cccc(-c5cn[nH]c(=O)c5)c4)c3)cc(C(F)(F)F)c2)cn1
-15.3% | Cc1ccc(N2CC(C(=O)Nc3nnc(SCCC4OCCO4)s3)CC2=O)cc1C (stereo not drawn)
1.2% | COc1ccc(-c2c(C)nn3c(N4CCCCCC4)cc(C)nc23)cc1OC
-3.5% | O=C(CSc1nnc(-c2cc3ccccc3cc2O)n1Cc1ccco1)c1ccc(F)cc1
-4.5% | COCCN=c1scc(-c2ccc3c(c2)NC(=O)CO3)n1/N=C(\C)c1ccc(O)cc1
3.8% | COC(=O)C(CC(C)C)NC(=O)c1cc(OC)c(OC)c(OC)c1 (stereo not drawn)
-1.6% | Cc1ccc2c(C(=O)CN3CCN(C4CCCCC4)CC3)c(C)[nH]c2c1
0.1% | O=C(/C=C/c1c(Cl)nc2ccccn12)N1CCN(c2ccccc2F)CC1
-18.2% | Cc1ccc(C(C(=O)NC(C)(C)C)N(CC2CCCO2)C(=O)CCC(=O)Nc2ccccn2)cc1 (stereo not drawn)
-11.1% | CCOC(=O)N1CCN(C(=O)c2cc3sccc3n2C)CC1
12.6% | Cc1cccc(CN2CCC(C(=O)Nc3cccc(-c4cccc(F)c4)c3)CC2)n1
-6.0% | COc1ccc(Cc2nnc(NC(=O)CSc3ccccc3)s2)cc1
7.1% | O=C(CN=C1NC(=O)C(c2ccccc2)(c2ccccc2)N1)NCc1ccc(F)cc1
-9.7% | Cc1c(C(=O)N/N=C/c2c(O)ccc3ccccc23)nnn1-c1nonc1N
4.1% | CCc1ccc(N2C(=O)CC(N3CCC(C(=O)OC)CC3)C2=O)cc1 (stereo not drawn)
2.1% | CCCCCOc1ccc(/C=C/C(=O)Nc2sc3c(c2C(=O)OCC)CCC3)cc1OC
10.0% | CCOc1cccc2sc(N(CCCN(C)C)C(=O)c3ccc(S(=O)(=O)N(C)Cc4ccccc4)cc3)nc12
-15.0% | CC(=O)/C(N=Nc1ccc2c(c1)OCO2)=C(\C)O
8.7% | COC(=O)c1ccccc1S(=O)(=O)NNC(=O)C1COc2ccccc2O1 (stereo not drawn)
18.9% | Cc1ccc(C)c(-n2nnc(-c3nc(-c4ccccc4C)no3)c2C)c1
2.8% | Fc1ccccc1OCCSc1ncnc2nc[nH]c12

VDR inh: entries above that show a hit
VDR inh | canonical_smiles
79.4µM* | C=C(CN(C)C)C(=O)c1ccc2c(c1)OCO2

Later entries
VDR inh | canonical_smiles
19.2% | Cc1sc2ncn(CC(=O)N(CC(=O)NC3CCCC3)Cc3cccs3)c(=O)c2c1C
79.4µM* | Oc1cccc(O)c1O
4.7% | COC(=O)COc1ccc(S(=O)(=O)Nc2ccc3c(c2)OCCO3)cc1Cl
7.8% | O=C1CCCN1c1ccc(S(=O)(=O)N2CCCCC2)cc1
17.2% | COc1ccc(-n2cc(CNC3CCN(C)CC3)c(-c3cccc(F)c3)n2)cc1
8.2% | Cc1ccc(C)c(NC(=S)N2CCN(c3cccc(C(F)(F)F)c3)CC2)c1
16.8% | Cc1ccc(S(=O)(=O)/N=C(\CSC(N)=O)Nc2ccccc2)cc1
-0.7% | CC(=O)N(C)c1ccc(NC(=S)Nc2cccc3ccccc23)cc1

Arranged by count of non-hydrogen atoms (rising): part of the list above.
VDR inh | canonical_smiles
79.4µM* | Oc1cccc(O)c1O
16.8% | Cc1ccc(S(=O)(=O)/N=C(\CSC(N)=O)Nc2ccccc2)cc1
4.7% | COC(=O)COc1ccc(S(=O)(=O)Nc2ccc3c(c2)OCCO3)cc1Cl
17.2% | COc1ccc(-n2cc(CNC3CCN(C)CC3)c(-c3cccc(F)c3)n2)cc1
19.2% | Cc1sc2ncn(CC(=O)N(CC(=O)NC3CCCC3)Cc3cccs3)c(=O)c2c1C

The listing continues.
VDR inh | canonical_smiles
-2.6% | COC(=O)CSCC(=O)Nc1nnc(-c2ccccc2C)s1
-13.3% | COc1ccc(Cc2nnc(SCC(=O)N(C)c3ccccc3)o2)cc1
3.2% | CCn1nc(C)c(CNC(=O)CC2C(=O)NCCN2CC(C)C)c1C (stereo not drawn)
-1.9% | COc1cccc(NC(=O)C2CCCN(S(=O)(=O)c3ccc(-n4cnnn4)cc3)C2)c1 (stereo not drawn)
-9.0% | O=C(COc1ncnc2ccccc12)NC(=O)NCc1ccccc1
-3.8% | COc1ccc(C2c3sc(=O)[nH]c3SC3C4CCC(C4)C23)cc1OC (stereo not drawn)
-0.6% | COc1ccc(-n2c(SC)nc3sc4c(c3c2=O)CCN(C)C4)cc1
-17.4% | CCCn1c(/C=N/Nc2nc3ccccc3[nH]2)nc2ccccc21

Random excerpt: 5 compounds from above
VDR inh | canonical_smiles
-3.6% | Cc1c(C(=O)C(=O)NCCC2=CCCCC2)c2ccccc2n1C
79.4µM* | Oc1cccc(O)c1O
-15.3% | Cc1ccc(N2CC(C(=O)Nc3nnc(SCCC4OCCO4)s3)CC2=O)cc1C (stereo not drawn)
-9.7% | Cc1c(C(=O)N/N=C/c2c(O)ccc3ccccc23)nnn1-c1nonc1N
-7.4% | Clc1ccc(C#Cc2cccnc2)cc1

Continuation:
VDR inh | canonical_smiles
24.4% | CSCCC(NC(=O)c1ccccc1Br)C(=O)NNC(=O)c1cc(C)oc1C (stereo not drawn)
-6.4% | Clc1ccc2c(NCc3ccccc3)ccnc2c1
-19.2% | Cc1cccc2nc(CNc3ccc(F)cc3)cn12
-13.7% | C#CCSc1n[nH]c(=O)n1-c1cccc(C(F)(F)F)c1
8.1% | CC(=O)N/C(=C/c1ccc2c(c1)OCO2)C(=O)NCCO
-16.1% | O=C(CCCN1C(=O)c2cccc3cccc(c23)C1=O)N1CCc2ccccc2C1
0.0% | CC1(C)NC(=O)N(CC(O)COC2CCCCC2)C1=O (stereo not drawn)
-10.0% | CCOC(=O)CCCN1CC(O)=C(c2nc3ccccc3s2)C1=N
7.9% | CCc1ccc(NC(=O)CSc2nc3n[nH]c(C)c3c(=N)n2-c2ccc(C)cc2)cc1
7.9% | CN(CCC#N)c1ncnc2scc(-c3ccccc3)c12
2.9% | CCOc1cc(C(=S)N2CCOCC2)ccc1OC(=O)c1ccc(C)cc1
0.8% | COc1ccccc1/C=C/C(=O)OCC(=O)Nc1ccc(Cl)cn1
-12.0% | COc1ccccc1C(=O)NCC(=O)OC(C)C(=O)N(C)C1CCCCC1 (stereo not drawn)
-0.2% | CCOC(=O)c1cnc(-n2nc(C)cc2C)nc1NNc1cc(C)nc(-c2ccccc2)n1
-6.0% | COCCn1c(C)cc(C(=O)COC(=O)/C=C/c2c(C)nn(C3CCS(=O)(=O)C3)c2Cl)c1C (stereo not drawn)
-6.8% | Cc1cc(NCc2cccnc2)nc(N)n1
-13.0% | O=C(COc1ccccc1Cl)Nc1cccnc1
-8.0% | CC1CCN(c2nc(N3CCCCC3)nc(N3CCCCC3)n2)CC1
4.5% | Cc1cccc(Cl)c1NC(=S)NN
-12.7% | CC(C)(CNC(=O)c1cccc(S(=O)(=O)NCc2ccccc2)c1)N1CCOCC1
5.1% | COc1ccc(-c2noc(CCC(=O)Nc3cccc(C)c3C)n2)cc1OC
-1.4% | CCC(C)Sc1ccc(-c2nc3ccc(Cl)cn3c2NCc2ccccc2)cc1 (stereo not drawn)
9.3% | CC12CCC(=O)N1C(C(=O)N1CCN(c3cccc(Cl)c3)CC1)CS2 (stereo not drawn)
-7.4% | Cc1ccc(NC(=O)CCSc2nc(-c3ccco3)cc(C(F)(F)F)n2)cc1F
-1.0% | Cc1ccc(-n2nnnc2SCC(=O)N2CCN(C(=O)c3ccco3)CC2)c(C)c1
-19.3% | Cc1noc(C)c1S(=O)(=O)N1Cc2ccccc2CC1C(=O)N(C)C (stereo not drawn)
-14.1% | O=C(Nc1cc2c(cc1C(=O)c1cccc(Br)c1)OCCO2)c1ccccc1F
13.0% | Cc1[nH]c2ccccc2c1NC(=O)CN1CCN(c2cccc(C(F)(F)F)c2)CC1
-5.9% | NS(=O)(=O)c1cccc(NC(=O)c2cc(-c3cccs3)nc3ccccc23)c1
-1.2% | Cc1ccc(C(=O)NC(=S)N2CCCCCC2)cc1
